Screening data (PubChem BioAssay)
ID4 SMM = ID4 (human) binding | calls only | P47928 | AID 624137 | 31,000 tested, 1.2% active | small molecule microarray, Flag-ID4 binding, fluorescence F/B;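 active means spot signal over background at p below 0.07 in all four prints; compounds were printed on slides so no solution concentration is given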;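 further: a binder raises fluorescence above local background on the spot; about 2 pmol printed per array spot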
Target sequence (P47928 whole entry, looked up): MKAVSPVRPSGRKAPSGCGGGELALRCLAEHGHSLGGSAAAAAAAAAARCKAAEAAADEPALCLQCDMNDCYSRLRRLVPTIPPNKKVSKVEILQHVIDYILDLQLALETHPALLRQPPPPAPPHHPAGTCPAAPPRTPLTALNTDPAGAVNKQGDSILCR
Calls only; i = inactive; + = active, no number. Not all compounds are listed, so the mix of outcomes need not match the whole.

canonical_smiles	ID4 SMM
CN1CCN(C(CC(=O)Nc2cccc([N+](=O)[O-])c2)C(=O)O)CC1 (stereo not drawn)	i
COc1ccc(NC(=O)CC2NCCNC2=O)cc1 (stereo not drawn)	i
COc1ccc(-c2cc(C(F)(F)F)n3nc(C(=O)NCCCN4CCOCC4)cc3n2)cc1	i
C[C@H]1CN([C@@H](C)CO)C(=O)c2cc(C#CCN(C)C)cnc2O[C@H]1CN(C)Cc1ccccc1	i
COc1ccc(Cl)cc1NC(=O)CSc1nc2ccccc2c(=O)[nH]1	i
COc1ccc(NC(=O)NCc2ccccn2)cc1OC	i
CC(C)NC(=O)N1[C@H](C#N)[C@@H](c2ccc(C#CC3CCCC3)cc2)[C@H]1CO	i
CCn1c(SCC(=O)Nc2ccc(Br)c(C)c2C)nnc1-c1ccccc1C	i
O=C(CSc1n[nH]c(-c2ccncc2)n1)Nc1cccc(Cl)c1	i
CCc1c(C)c(C#N)c2[nH]c3ccccc3n2c1=O	i
O=C(C[C@@H]1C[C@@H]2c3cc(NS(=O)(=O)c4ccc(F)cc4)ccc3O[C@@H]2[C@@H](CO)O1)NCc1cccnc1	i
[N-]=[N+]=Nc1ccccc1C[C@]1(C(=O)N2CCOCC2)N=C(c2ccc(OCCCO)cc2)O[C@H]1c1ccccc1	i
CC(=O)NCCc1nc2cc(NC(=O)Nc3ccccc3)ccc2n1C	i
C=CCn1c(=S)sc2c(=O)n(/N=C/c3ccc(Cl)cc3Cl)c(C)nc21	i
NC(=O)C1CCN(C(=O)CSc2nc3c(c(-c4ccccc4)n2)CCCC3)CC1	i
COc1ccc(-c2cnc3c(c2)C(=O)N([C@H](C)CO)C[C@@H](C)[C@@H](CN(C)Cc2cccnc2)O3)cc1	i
O=C(COc1ccc(Cl)cc1Cl)Nc1ccc(O)c(-c2nc3ccccc3s2)c1	i
CN1CCc2cc3c(cc2C(=O)Cc2ccc4c(c2C1)OCO4)OCO3	i
CCN(CC)CCNC(=O)c1ccc(N)cc1	i
CCOc1ccc2nc(SCC(=O)Nc3cccc(C(F)(F)F)c3)sc2c1	i
CC(C)CC#Cc1cnc2c(c1)C(=O)N([C@@H](C)CO)C[C@@H](C)[C@H](CN(C)C(=O)c1ccc(F)cc1)O2	i
C[C@@H]1CN([C@@H](C)CO)C(=O)CCCn2nncc2CO[C@H]1CN(C)Cc1ccccc1C(F)(F)F	i
CSc1ccc(S(=O)(=O)N(CC(=O)O)c2ccc(C)cc2)cc1	i
C[C@@H]1CN([C@H](C)CO)C(=O)c2ccccc2-c2ccccc2CO[C@@H]1CN(C)C(=O)CCN(C)C	i
CC(=O)N1CN(C2CCS(=O)(=O)C2)Cc2c1sc1c2CCCC1 (stereo not drawn)	i
CCCNC(=O)N(C)C[C@H]1Oc2ncc(C#CC3(O)CCCC3)cc2C(=O)N([C@H](C)CO)C[C@H]1C	i
CCn1c(SCC(=O)Nc2cccc3ccccc23)nnc1-c1ccco1	i
C[C@H]1CN([C@@H](C)CO)C(=O)c2cc(-c3cccnc3)cnc2O[C@H]1CN(C)C(=O)NC1CCCC1	i
CCCN(C)C[C@H]1Oc2ncc(C#Cc3ccccc3OC)cc2C(=O)N([C@H](C)CO)C[C@H]1C	i
CC(C)[C@H](C)NC(=O)N(C)C[C@@H]1OCc2ccccc2-c2ccccc2C(=O)N([C@H](C)CO)C[C@H]1C	i
C[C@@H]1CN([C@H](C)CO)C(=O)c2c(c3ccccc3n2C)-c2ccccc2CO[C@@H]1CN(C)C	i
CO[C@H](CN(C)S(=O)(=O)c1cccc(Cl)c1)[C@@H](C)CN([C@H](C)CO)S(=O)(=O)c1ccc(Cl)cc1	i
COC(=O)C[C@H]1CC[C@H](NC(=O)c2ccccc2)[C@H](CO)O1	i
C[C@@H]1CN([C@H](C)CO)C(=O)c2cc(-c3ccccc3F)cnc2O[C@H]1CN(C)Cc1cccc(C(=O)O)c1	i
CCn1c(SCC(=O)Nc2ccccc2C)nnc1-c1ccc(Br)cc1	i
C[C@@H](NC(=O)C[C@H]1CC[C@@H](NC(=O)C2CC2)[C@H](CO)O1)c1ccccc1	i
COc1ccc(NC(=O)CSc2nccc(C)n2)cc1	i
O=C(Nc1ccccc1[N+](=O)[O-])C1(c2ccccc2)CCN(S(=O)(=O)c2ccccc2)CC1	i
C[C@H](O)C#Cc1cnc2c(c1)C(=O)N([C@@H](C)CO)C[C@H](C)[C@@H](CN(C)Cc1cccc(F)c1)O2	i
C[C@@H]1CN([C@@H](C)CO)S(=O)(=O)c2ccc(-c3ccncc3)cc2O[C@@H]1CN(C)Cc1ccc(Oc2ccccc2)cc1	i
Cc1ccc(NC(=O)CN(c2cccc(F)c2)S(C)(=O)=O)cc1	i
Cc1ccc(-c2nnc3c4ccccc4c(C)nn23)cc1S(=O)(=O)NCc1cccnc1	i
C[C@H]1CN([C@@H](C)CO)C(=O)c2cc(C3=CCCCC3)cnc2O[C@@H]1CN(C)C(=O)c1cccc(F)c1	i
C[C@@H]1CN([C@@H](C)CO)C(=O)c2cc(C3=CCCC3)cnc2O[C@H]1CN(C)Cc1ccc(F)cc1	i
Cc1ccc(S(=O)(=O)N(CC(=O)O)c2ccc(C)c(C)c2)cc1	i
COc1ccc(NC(=O)CN(C2CCCCC2)S(=O)(=O)c2ccc(Cl)cc2)cc1	i
C[C@@H]1CN([C@H](C)CO)C(=O)c2cc(C3=CCCC3)cnc2O[C@H]1CN(C)C	i
O=C(C[C@@H]1C=C[C@H](NC(=O)C2CC2)[C@H](CO)O1)Nc1ccccc1	i
CO[C@@H](CN(C)Cc1cc(F)ccc1F)[C@@H](C)CN([C@@H](C)CO)S(=O)(=O)c1ccc(F)cc1	i
CCS(=O)(=O)c1nc2ccccc2n1CC(=O)N1CCCCC1	i

An excerpt from above in order of number of heavy atoms, largest number first.
canonical_smiles	ID4 SMM
Cc1ccc(-c2nnc3c4ccccc4c(C)nn23)cc1S(=O)(=O)NCc1cccnc1	i
COc1ccc(NC(=O)CN(C2CCCCC2)S(=O)(=O)c2ccc(Cl)cc2)cc1	i
CCS(=O)(=O)c1nc2ccccc2n1CC(=O)N1CCCCC1	i

(next part)
canonical_smiles	ID4 SMM
Cc1cc(C)c(S(=O)(=O)N(CC(=O)O)C2CCCCC2)c(C)c1	i
CSc1ccccc1-n1nnnc1SCC(=O)Nc1ccccc1C	i
COC(=O)CCC(=O)Nc1ccc(C#N)cc1	i
COc1cccc(C(=O)Nc2cccc(OCC(=O)O)c2)c1	i
CC(Oc1ccc(Cl)cc1Cl)C(=O)Nc1cccc(-c2nnc(-c3ccccc3)o2)c1 (stereo not drawn)	i
COC(=O)c1ccccc1NC(=O)CSc1nnnn1C1CCCCC1	i
CCN(CC(=O)Nc1ccc(Cl)c(C(F)(F)F)c1)S(=O)(=O)c1ccc(C)cc1	i
Cn1c(=O)c2c(nc(NCCN3CCOCC3)n2Cc2cccc(F)c2)n(C)c1=O	i
C[C@H](CO)N1C[C@H](C)[C@@H](CN(C)C(=O)[C@H]2CCCN2C)OCc2ccccc2-c2ccccc2C1=O	i
C[C@H](O)C#Cc1ccc2c(c1)O[C@H](CN(C)C(=O)CN(C)C)[C@H](C)CN([C@@H](C)CO)S2(=O)=O	i
COc1ccccc1OCC(=O)Nc1cccc(-c2nc3ccccc3s2)c1	i
O=C(C[C@H]1C=C[C@H](NC(=O)C2CCC2)[C@@H](CO)O1)NC1CCC1	i
COC(=O)C[C@H]1C[C@H]2c3cc(NS(C)(=O)=O)ccc3O[C@H]2[C@H](CO)O1	i
C[C@@H]1CN([C@H](C)CO)C(=O)c2cc(-c3ccc(C#N)cc3)cnc2O[C@H]1CN(C)CC1CCCC1	i
O=C(COc1ccc(S(=O)(=O)N2CCCC2)cc1Cl)Nc1ccccc1F	i
O=C(CN(C1CCCCC1)S(=O)(=O)c1ccc(F)cc1)Nc1cc(Cl)ccc1Cl	i
C=CCSc1nnc(NC(=O)c2nc(SCC)ncc2Cl)s1	i
C[C@@H]1CN([C@H](C)CO)C(=O)c2cccc(NC(=O)C3CC3)c2O[C@@H]1CN(C)CC1CCCCC1	i
C[C@H]1CN([C@@H](C)CO)S(=O)(=O)c2ccc(-c3cccc(C#N)c3)cc2O[C@H]1CN(C)C(=O)c1ccc(F)cc1	i
COc1cc(OC)cc(-c2nnc(SCC(=O)Nc3ccc(Cl)cc3C)n2-c2ccccc2)c1	i
C[C@@H]1CN([C@H](C)CO)C(=O)c2cc(C#CCN(C)C)cnc2O[C@H]1CN(C)C(=O)c1cccnc1	+
CCCNC(=O)N[C@@H]1C=C[C@@H](CC(=O)NCCc2ccccc2)O[C@@H]1CO	i
C[C@H]1CN([C@@H](C)CO)C(=O)c2cc(-c3ccccc3)cnc2O[C@H]1CN(C)C	i
Cc1ccc2nc(Nc3nc(CSc4nc5ccccc5s4)cc(=O)[nH]3)nc(C)c2c1	i
CCOC(=O)c1c(C)c(C#N)c(/N=C/N(C)C)n1-c1ccc(Cl)cc1Cl	i
O=C(O)CCc1nn2c3ccccc3n(CCN3CCCCC3)c2nc1=O	+
CC(=O)c1cccc(-n2c(CCC(=O)O)ccc2-c2ccccc2)c1	i
Cc1c(Cl)cccc1NC(=O)CSc1nnc(-c2cccc(Cl)c2)n1C	i
CCCN(C)C[C@@H]1Oc2cc(C#CCC3CCCC3)ccc2S(=O)(=O)N([C@H](C)CO)C[C@H]1C	i
Cc1noc(C)c1NC(=O)N[C@@H]1CC[C@H](CC(=O)N2CCCCC2)O[C@@H]1CO	i
CCn1c(SCC(=O)Nc2cccc(SC)c2)nnc1-c1ccc(Br)cc1	i
Cc1ccccc1-c1ccc2c(c1)O[C@@H](CN(C)C(=O)Nc1ccc(F)cc1)[C@H](C)CN([C@@H](C)CO)S2(=O)=O	i
CCN(CC(=O)Nc1c(C)cc(C)cc1C)S(=O)(=O)c1ccc2ccccc2c1	i
CCN(C(=O)C(C)Oc1ccccc1)c1ccccc1C (stereo not drawn)	i
Cc1ccccc1-c1cnc2c(c1)C(=O)N([C@H](C)CO)C[C@H](C)[C@H](CN(C)Cc1ccncc1)O2	i
O=C(c1ccccc1)C1CN(C2CCS(=O)(=O)C2)CCC1(O)c1ccccc1 (stereo not drawn)	i
C[C@@H]1CN([C@@H](C)CO)C(=O)c2cc(/C=C/c3ccccc3)cnc2O[C@H]1CN(C)C	i
O=C(C[C@@H]1C=C[C@H](NC(=O)Nc2ccccc2F)[C@@H](CO)O1)NCc1ccc(F)cc1	i
CS(=O)(=O)N(CC(=O)NC1CCCCC1)c1cc(Cl)c(Cl)cc1Cl	i
COC(=O)c1ccccc1NC(=O)CNC(=O)c1ccccc1	i

Structures above that contain an aryl thioether with sulfur outside any ring:
canonical_smiles	ID4 SMM
COc1ccc(Cl)cc1NC(=O)CSc1nc2ccccc2c(=O)[nH]1	i
CCn1c(SCC(=O)Nc2ccc(Br)c(C)c2C)nnc1-c1ccccc1C	i
O=C(CSc1n[nH]c(-c2ccncc2)n1)Nc1cccc(Cl)c1	i
NC(=O)C1CCN(C(=O)CSc2nc3c(c(-c4ccccc4)n2)CCCC3)CC1	i
CCOc1ccc2nc(SCC(=O)Nc3cccc(C(F)(F)F)c3)sc2c1	i
CSc1ccc(S(=O)(=O)N(CC(=O)O)c2ccc(C)cc2)cc1	i
CCn1c(SCC(=O)Nc2cccc3ccccc23)nnc1-c1ccco1	i
CCn1c(SCC(=O)Nc2ccccc2C)nnc1-c1ccc(Br)cc1	i
COc1ccc(NC(=O)CSc2nccc(C)n2)cc1	i
CSc1ccccc1-n1nnnc1SCC(=O)Nc1ccccc1C	i
COC(=O)c1ccccc1NC(=O)CSc1nnnn1C1CCCCC1	i
C=CCSc1nnc(NC(=O)c2nc(SCC)ncc2Cl)s1	i
COc1cc(OC)cc(-c2nnc(SCC(=O)Nc3ccc(Cl)cc3C)n2-c2ccccc2)c1	i
Cc1ccc2nc(Nc3nc(CSc4nc5ccccc5s4)cc(=O)[nH]3)nc(C)c2c1	i
Cc1c(Cl)cccc1NC(=O)CSc1nnc(-c2cccc(Cl)c2)n1C	i
CCn1c(SCC(=O)Nc2cccc(SC)c2)nnc1-c1ccc(Br)cc1	i
